Source: PubChem BioAssay
GLA inh pH 4.5: alpha-galactosidase A (human) inhibition, pH 4.5; AID 1467; P06280; purified enzyme, 4-MU-alpha-Gal fluorescence, pH 4.5; 230,000 tested, under 10 active; activity change, negative = inhibition, % at 105 µM; inconclusive = small, poorly fitted or top-dose-only inhibition, or a rising curve; inactive = flat fitted curve, though single readings scatter; no compound was filed as active;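 further: 0% = full activity with enzyme and -100% = basal without enzyme; dose as in the result columns while the protocol names 77 µM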
Target sequence (P06280 whole entry, looked up): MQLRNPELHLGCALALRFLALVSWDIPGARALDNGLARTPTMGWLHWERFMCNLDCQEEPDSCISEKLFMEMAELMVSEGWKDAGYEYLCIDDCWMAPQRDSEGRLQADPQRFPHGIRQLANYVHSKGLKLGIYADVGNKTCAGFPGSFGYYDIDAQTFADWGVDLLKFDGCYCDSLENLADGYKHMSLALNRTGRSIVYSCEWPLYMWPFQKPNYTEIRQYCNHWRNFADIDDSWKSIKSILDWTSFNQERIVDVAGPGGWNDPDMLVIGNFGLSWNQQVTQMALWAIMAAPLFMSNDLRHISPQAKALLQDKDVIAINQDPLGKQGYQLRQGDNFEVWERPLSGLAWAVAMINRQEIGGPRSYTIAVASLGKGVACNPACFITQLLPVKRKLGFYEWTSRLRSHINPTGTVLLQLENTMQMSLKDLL
Rango complex inh: prevents formation of the Rango-importin beta complex. AID 540263. Q14974. Rango CFP/YFP FRET sensor + importin beta, 45 min. Potency, µM (series often up to 92.2 µM), inactives show at the highest dose inhibition of complex formation. hit rate 0.031% among 340,000; active = rising FRET ratio curve, often small or poorly fitted; inconclusive = mostly compound fluorescence or quenching in the first reads; inactive = flat curves in all reads;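 further: potency means the concentration at half of the fitted maximal effect; 0% = DMSO wells and 100% = buffer wells lacking importin beta; nearly all actives have a fitted effect of over 15% in size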
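FRET biosensor (snurportin 1 IBB flanked by EYFP and cerulean), 50 nM, with compound 5 min, then 0.125 microM importin beta in PBS, 1 mM DTT, 0.02% Tween-20, 0.1% BSA. CFP/YFP ratio read after 45 min at room temperature; pre-read flags interference.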
miR-21 FLuc: raises the signal of a miR-21 reporter; Potency, µM (titrated, usually from 38.3 µM), inactives show top-dose reporter change, positive = more light; HeLa miR-21 FLuc reporter, luciferase, 48 h; AID 2288; 340,000 tested, under 10 active; active = well fitted rising curve with a large enough effect; inconclusive = small, poorly fitted or top-dose-only effect; inactive = no such curve, though single readings can be large or run the other way;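 further: % of control where 0% means no effect; miR-21 action dims this reporter so a rising signal means less miR-21 action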
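Compounds were titrated across several concentrations (up to approximately 40 uM) and incubated 48 hours with HeLa miR-21-FLuc reporter cells (miR-21 target sequence downstream of FLuc, endogenous miR-21). Readout was firefly luciferase luminescence after lytic detection reagent.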
Rango dissoc inh: prevents RanGTP from dissociating the Rango-importin beta complex; Potency, µM (top dose mostly 46.1 µM), without a hit: at the top dose activity change, negative = inhibition; hit rate 0.071% among 340,000; O95149+P62826; AID 540253; Biochemical FRET Rango-importin beta, RanGTP-induced dissociation; active means falling FRET ratio curve, often poorly fitted, with flat reads before Ran was added; inconclusive means other falling curves, or compound fluorescence or quenching; inactive means flat or rising ratio curve;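 further: potency means the concentration at half of the fitted maximal effect; % of control where 0% means no effect; nearly all actives have a fitted effect of over 45% in size; -100% = wells without RanGTP and RCC1; the record marks most hits as doubtful in a second field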
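Quantitative HTS using a FRET biosensor: 0.1 uM Rango, 0.25 uM importin beta, 0.6 uM Ran, 2 mM GTP, 0.2 uM RCC1 final, PBS with DTT, Tween-20 and BSA. Post-read taken 45 min after Ran addition.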
An asterisk follows results filed as active; ? = inconclusive; nt = no result given; & = joins results of further samples; [ ] = remark or other dose.

SMILES	GLA inh pH 4.5	Rango complex inh	miR-21 FLuc	Rango dissoc inh
Cc1cc(N2CCN(c3ccccc3)CC2)n2nnnc2n1	-3	1.3%	-2%	-6%
COc1ccc(OC)c(Nc2nc(N)c([N+](=O)[O-])c(NCc3ccccc3)n2)c1	-5	-2.2%	-7%	-2%
NC(=S)N/N=C1\CC(n2nnnc2-c2ccccc2Cl)C2COC1O2 (centres undefined)	0	-2.9%	-3%	3%
CCN1C(=O)N(C)C(N(O)C(=O)NC)C1(C)C (centres undefined)	9	-0.8%	-6%	20%
CCOC(=O)CN1NC2(CCCCCCC2)NC1=S	-8	3.6%	-1%	1%
CC(=O)c1c(C)n(-c2ccccc2Br)c2ccc(O)cc12	nt	0.5%	11%	-13%
O=C1C=C(O)CC(c2cccs2)C1 (centres undefined)	1	1.0%	-10%	3%
CCc1n[nH]c2c1C(=O)CC(C)(C)C2	-11	-5.2%	-1%	-1%
O=C(NNC(=O)C1CC(=O)N(Cc2ccccc2)C1)c1ccc(F)cc1 (centres undefined)	nt	2.1%	nt	15%
Cc1ccc(S(=O)(=O)N2CCN(C(=O)CCCOc3cccc(C)c3)CC2)cc1	nt	-0.5%	nt	9%
CCn1cc(S(=O)(=O)NC2CCCCC2)cn1	nt	-0.6%	-6%	-10%
COc1ccc2c(c1)c1nc3ccccc3nc1n2CCCN1C(=O)c2ccccc2C1=O	6	?	-4%	5%
Cc1ccc(C(=O)NCC(=O)N2CCCC(C(F)(F)F)C2)s1 (centres undefined)	nt	3.5%	nt	14%
CCOC(=O)C1(Cc2ccccc2)CCN(Cc2nccn2CC)CC1	3	3.9%	-1%	14%
COc1cc(C)cc2c1OC(c1ccccc1)CC2=O (centres undefined)	nt	-1.8%	nt	10%
Cc1ccc(S(=O)(=O)CC(=O)Nc2nnc(C(C)C)s2)cc1	nt	0.3%	-2%	-2%
Cc1ccc(S(=O)(=O)N(CC(=O)NN=C2CCN(C)CC2)c2ccc(F)cc2)cc1	7	-0.7%	4%	1%
CCc1ccc(/C=C2\SC(N3CCOCC3)=NC2=O)cc1	-16	-1.3%	0%	7%
Cc1nc2ccccc2n1CC(=O)NC1CCCC1	nt	-2.1%	1%	14%
COc1ccc(C2NN=C(c3ccc(C)cc3)S2)cc1OC (centres undefined)	2	-0.1%	-57%	-17%
COC(=O)c1c(NC(=O)C(=O)NCCCN2CCOCC2)sc2c1CCCC2	nt	-0.5%	0%	-10%
CCN1CCN(c2ccc(S(=O)(=O)N3CCOCC3)cc2NC(=O)c2ccc(C)c(C)c2)CC1	nt	3.8%	nt	-14%
CC(C)Oc1ccc(CCC(=O)N/N=C/c2ccncc2)cc1	-5	0.8%	-1%	8%
CC(C)C(=O)N(c1ccc2oc(=O)sc2c1)S(=O)(=O)c1ccccc1	-4	2.7%	4%	-3%
N#C/C(=C1/CCCN1)c1ccccn1	4	-1.0%	0%	6%
CSCCC(NS(=O)(=O)c1ccc(C)cc1)C(=O)N(C)CC(=O)Nc1ccccc1Br (centres undefined)	nt	-2.6%	nt	-5%
COC(=O)c1ccc(OC(=O)CS(=O)c2ccccc2[N+](=O)[O-])cc1 (centres undefined)	-3	-0.3%	-1%	0%
COc1cc([N+](=O)[O-])ccc1NC(=O)CN1CCN(C(=O)c2ccco2)CC1	-8	1.8%	-3%	1%
CCC(C)c1ccc(NC(=O)NCCN2CCCCC2)cc1 (centres undefined)	nt	0.2%	7%	0%
Cc1cc(C)cc(C(=O)NCCC(=O)NCc2cc(=O)n(C)c(=O)n2C)c1	nt	0.2%	-1%	-15%

Next section, overlapping the part above by 2 compounds.
SMILES	GLA inh pH 4.5	Rango complex inh	miR-21 FLuc	Rango dissoc inh
CCC(C)c1ccc(NC(=O)NCCN2CCCCC2)cc1 (centres undefined)	nt	0.2%	7%	0%
Cc1cc(C)cc(C(=O)NCCC(=O)NCc2cc(=O)n(C)c(=O)n2C)c1	nt	0.2%	-1%	-15%
C=CC[C@H](CC(=O)NCCO)C(=O)N[C@@H](COC(=O)[C@H](CC=C)CC(=O)OC(C)(C)C)Cc1ccccc1	nt	-2.3%	nt	42%
O=C(NCCc1c[nH]c2ccccc12)/C(=C/c1ccco1)NC(=O)c1ccco1	6	1.5%	3%	10%
CC1CCN(C(=O)c2cc3nc(C4CC4)cc(C(F)(F)F)n3n2)CC1	1	-1.8%	-21%	7%
CC1=CCC(C(=O)O)C(C(=O)Nc2ccc(-c3nc4ccc(C)cc4s3)cc2)C1 (centres undefined)	-1	0.2%	-30%	13%
O=C(Nc1ccc2nc(-c3cccnc3)[nH]c2c1)C1CCCCC1	2	-2.0%	-26%	-1%
NS(=O)(=O)c1ccc(NC(=O)CN2CCN(Cc3ccccc3)CC2)cc1	2	0.4%	3%	20%
COC(=O)c1ccc(NC(=O)COc2ccc(S(=O)(=O)NC(C)C)cc2)cc1	-4	1.6%	-4%	5%
Cc1ccc2[nH]c(=O)c(CN(CCc3ccccc3)Cc3nnnn3CC3CCCO3)cc2c1 (centres undefined)	-2	0.0%	-14%	?
CCOC(=O)N1CCN(c2ccc(O)cc2)CC1	5	-11%	-3%	-6%
O=C(CSc1ccc(-c2ccccc2)nn1)c1cccs1	-3	0.8%	-68%	-7%
COC(=O)c1ccsc1NC(=O)c1cccc(OC)c1	-3	-2.8%	-3%	-8%
O=S(=O)(c1ccc(S(=O)(=O)N2CCN(C3CCCCC3)CC2)cc1)N1CCCCCC1	10	3.0%	3%	0%
Cc1cc(CNCCN(C)C)c(C)n1-c1cc(S(=O)(=O)N2CCOCC2)ccc1N1CCCC1	nt	2.6%	nt	-26%
CCNc1ccccc(-c2ccc3ccccc3n2)c1=O	0	?	-53%	?
Cc1cccc(-n2nc3c(c2NC(=O)CCC2CCCCC2)CS(=O)C3)c1C (centres undefined)	4	7.0%	-1%	?
COc1ccc(C[C@H]2CN3C(=NC[C@@H]3C(C)C)N2CCNC(=O)c2ccc(C)c(Br)c2)cc1	-7	6.3%	28%	-14%
CN1C(=O)C(CC(=O)Nc2ccccc2F)N(NC(=O)c2ccc(Br)cc2)C1=S (centres undefined)	nt	0.4%	5%	-10%
O=C(NC(=S)N1CCCc2ccccc21)c1ccccc1	8	-6.9%	-37%	-8%
COc1ccc(NC(=O)COc2ccc(/C=C/c3cccc[n+]3C)cc2OC)cc1	nt	?	5%	-29%
Clc1ccc(CN2C3=NCCCN3c3ccccc32)c(Cl)c1	nt	4.7%	17%	10%
COc1ccccc1C(=O)NCCC(=O)NCCCSc1ccccc1	nt	6.8%	nt	5%
COC(=O)C1=C(C)NC(=O)NC1/C=C/c1ccccc1 (centres undefined)	0	6.4%	-2%	-10%
O=c1[nH]c2cccnc2n1-c1ccc([N+](=O)[O-])cc1	1	1.5%	2%	19%
CN(C)S(=O)(=O)c1cccc(-c2nn(-c3ccccc3)cc2/C=C(/C#N)C(=O)NCc2ccco2)c1	2	1.0%	-3%	-6%
CC(=O)Nc1ccc(S(=O)(=O)N(C#N)c2nc(N(C)C)nc(N(C)C)n2)cc1	nt	1.2%	2%	4%
CSc1ncc(CN2CCC(C(=O)Nc3cccc(-c4cscn4)c3)CC2)cn1	nt	4.0%	19%	3%
Cc1ccc(/C=C2/SC(=S)N(CCC(=O)N3CCOCC3)C2=O)cc1	nt	-0.9%	4%	9%
CN1CCN(CC/C=C2/c3ccccc3Sc3ccc(S(=O)(=O)N(C)C)cc32)CC1	-3&3	-3.6%	19%	15%
COc1ccc(C(C)=O)cc1COC(=O)[C@H](Cc1ccccc1)NC(=O)c1ccco1	nt	0.9%	nt	11%
Cc1ccc(S(=O)(=O)N2CCN(Cc3nc4ccccc4n3C)CC2)cc1	-5	0.4%	-1%	-11%

Sorted by value in miR-21 FLuc (lowest first): some entries from above
compound,miR-21 FLuc
Cc1ccc(S(=O)(=O)N2CCN(Cc3nc4ccccc4n3C)CC2)cc1,-1%
Clc1ccc(CN2C3=NCCCN3c3ccccc32)c(Cl)c1,17%
CN1CCN(CC/C=C2/c3ccccc3Sc3ccc(S(=O)(=O)N(C)C)cc32)CC1,19%

Later entries.
SMILES	GLA inh pH 4.5	Rango complex inh	miR-21 FLuc	Rango dissoc inh
Brc1ccc2ncnc(NCc3ccco3)c2c1	3	-0.5%	14%	-8%
NC(=O)CC(NC(=O)Cc1ccc(Br)cc1)c1ccc(N2CCC(Br)CC2)c([N+](=O)[O-])c1 (centres undefined)	-7	2.4%	4%	3%
COc1ccc(C(=O)N2CCCC(Nc3ccc(F)cc3)C2)cc1F (centres undefined)	nt	-0.3%	-2%	7%
Cc1cccc(COc2ccccc2C(=O)N(C)CC(=O)Nc2cccc(F)c2)c1	nt	-1.1%	nt	5%
Cc1ccc(S(=O)(=O)CC(=O)c2ccc(C(C)(C)C)cc2)cc1	-6	-6.6%	-13%	11%
CCOC(=O)c1c(C)[nH]c(C(=O)COC(=O)c2cnccn2)c1C	nt	-0.2%	nt	1%
COc1ccc(F)cc1Cn1nc(C(=O)O)c2ccccc2c1=O	nt	2.2%	-4%	-1%
O=C(NC1CCCCC1)C(c1ccncc1)N(C(=O)c1csnn1)c1ccccc1F (centres undefined)	nt	-2.6%	-3%	-18%
CCOC(=O)C1=C(CN2CCC(C)CC2)NC(=O)NC1c1ccc(Cl)cc1 (centres undefined)	-21	-0.4%	-4%	7%
Cc1ccc(NC(=O)COc2ccccc2)c(NC(=O)c2ccco2)c1	nt	-0.3%	-2%	3%
O=C(Nc1ccc(Cc2ccncc2)cc1)c1cccc([N+](=O)[O-])c1	-1	0.4%	-6%	0%
CCCn1c2ccccc2c2nnc(SCC(=O)Nc3nnc(CC(=O)OCC)s3)nc21	8	0.7%	-2%	-4%
CCCNC(=O)C(=O)N/N=C/c1ccc(OCc2ccccc2)cc1	-3[21.1 µM]	-3.1%	0%	-9%
COc1ccccc1NC(=S)NCCc1c[nH]c2ccccc12	-4	4.3%	-6%	-14%
CCOc1ccc(NS(=O)(=O)c2ccc(NC(=O)c3cccnc3)c(OC)c2)cc1	0	-5.7%	7%	-5%
CN(CC1CCCN(CCc2ccccc2F)C1)C(=O)c1ccoc1 (centres undefined)	nt	3.2%	-15%	2%
CCOC(=O)Cc1csc(NC(=O)COc2ccc(C)c(C)c2)n1	7	0.1%	-42%	13%
CCN(C(=O)/C=C/c1ccccc1)C1CCCCC1	nt	-0.1%	-19%	-4%
O=C(Cn1nc(-c2cccc(Cl)c2)ccc1=O)Nc1cccnc1	-7	-5.6%	-17%	-4%
Cc1ccc2c(CSc3nncn3C)cc(=O)oc2c1C	-2	4.0%	-7%	-15%
CCOC(=O)N1c2ccccc2Sc2ccccc21	-4	-4.0%	5%	8%
O=C(Nc1nnc(Cc2ccc(Cl)cc2)s1)c1cccs1	0	-3.2%	-7%	-11%
Cc1cccc(C)c1OCC(=O)OCC(=O)Nc1ccc(Cl)cn1	nt	1.3%	nt	-4%
O=C(CN(c1ccc2c(c1)OCCO2)S(=O)(=O)c1ccccc1)NCC1CCCO1 (centres undefined)	-3	1.7%	-3%	20%
Cc1cc(SCC(=O)N(C)CC(=O)Nc2ccc(F)cc2)nc2ccccc12	-2	-0.4%	-4%	2%
COC(=O)c1sc(S(=O)(=O)NC(C)C(=O)O)c(C(=O)OC)c1C (centres undefined)	-10	-1.2%	2%	11%
COC(=O)c1ccc(-c2n[nH]c(=O)c3ccccc23)cc1	5	?	-8%	5%
Cc1ccc(Cl)cc1N1C(=O)CC(Sc2ncccn2)C1=O (centres undefined)	nt	-3.2%	3%	5%
C#CCOCCOCCOCCNc1nc(N2CCN(C(=O)[C@H](CCCN=C(N)N)n3cc(C(N)[C@@H](C)CC)nn3)CC2)nc(N2CCN(C(=O)[C@H](CCC(=O)O)n3cc([C@@H](N)CC(N)=O)nn3)CC2)n1 (some centres undefined)	nt	0.8%	nt	2%
O=C(CSc1nc2ncccc2[nH]1)NC1CCCCC1	nt	-0.1%	-9%	-20%
CCOCCCNC(=O)c1ccc(N2CCOCC2)c(NS(=O)(=O)c2ccc(OC)cc2)c1	5	-3.5%	-7%	-8%

A portion of the library (hit frequency here may not be typical).
